Bead autofluor – compound fluorescence in toxin protease inhibitor counterscreen; compound autofluorescence counterscreen, microsphere flow cytometry; active compounds read high; 3.1% of 360,000 active; AID 624483; fluorescence intensity (no concentration beside the values);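 active means at least 3 SD above the mean of all compounds, about 16000 in these data; inconclusive means too few beads counted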;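 further: 100 nL of 1 mM stock went into each well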
BJeLR viability – MLPCN primary cell-based screen for lethality selective to Ras in HRASV12 cells | BJeLR (HRASV12) viability, CellTiter-Glo ATP luminescence, 48 h; reference of the scale not given here | inhibition, % (concentration not given with the values) | 0.17% of 300,000 active | AID 1554, 2009;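 active means replicate mean above 50%; inconclusive means above 50% but judged a plate artefact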;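 further: 50 nL library stock added to about 25 µL; numbers are from one replicate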
Mtb hypoxia rep – PubChem AID 1159583 | M. tuberculosis hypoxia-regulated fluorescent reporter, fluorescence | fluorescence inhibition, % (concentration not given with the values) | 0.1% of 300,000 active;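 active means 35 to 45% if threefold the growth effect, above 45% if 1.5-fold the growth effect; inactive means the rest, general growth blockers included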;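 further: wells of about 50 µL received 100 nL stock; 0% = vehicle wells and 100% = reference inhibitor wells; whole bacteria with a GFP reporter of the hypoxia response; strong numbers were not always called active; many hits fall short of the cut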
RN4220 kill – growth inhibition of S. aureus RN4220, primary screen, OD600 | inhibition, % (no concentration beside the values) | 16 h | 0.33% of 330,000 active;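 active means z-score of -3 or lower and OD600 up to 0.18 on both plates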;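 further: plate controls were untreated cells for no effect and reference antibiotic for full effect; stock transfer was 100 nL into about 80 µL; one replicate is shown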
PrP UTR inh – inhibition of PrP 5' UTR reporter expression. cell-based PrP 5' UTR mRNA reporter, plate reader. 0.35% of 340,000 active. inhibition, % (concentration not given with the values);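 active means every replicate at 50% or more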;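 further: 0 = median of the neutral control wells; tested in H4 reporter cells; numbers are from one replicate; inactives centre near -14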
Sa ugtP lethal – growth inhibition of ugtP-null S. aureus, primary screen, RN4220 ugtP deletion, OD600; 16 h; some inactives read as strong as hits; growth inhibition, % (concentration not given with the values); 0.54% of 330,000 active; AID 1259309, 2017;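 active means z-score under -3 and OD600 up to 0.15 on both plates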;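 further: plate controls were untreated wells for no effect and antibiotic for full effect; wells of about 80 µL received 100 nL stock; the first replicate is given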
Mtb hypoxia rep growth – recorded beside Mtb hypoxia rep, whose call it bears; growth inhibition, %; measured here: M. tuberculosis growth (absorbance);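 0% = vehicle and 100% = reference antibiotic; read after six days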
The depositor's hits bear a star; ? = inconclusive; / = not tested or not shown. Outcome played no part in choosing rows. Share with any hit: about 4%.

Every second line gives: Bead autofluor	BJeLR viability	Mtb hypoxia rep	Mtb hypoxia rep growth	RN4220 kill	PrP UTR inh	Sa ugtP lethal
CCOC(=O)Cc1c[nH]c2ccccc12
    8022	-1.0	3.2	5.9	0.1	-10.9	2.6
Cc1cccc(OCC(=O)NCC(=O)N/N=C/c2ccc(N(C)C)cc2)c1
    5553	-4.5	/	/	/	-13.2	/
CCOC(=O)c1c(-c2ccccc2)csc1NC(=O)c1cc(S(=O)(=O)N2CCOCC2)ccc1C
    2263	-0.2	3.1	9.6	5.9	-4.9	33.3
CCCS(=O)(=O)N1CCCC(C(=O)NCCCOCC)C1 (stereo not given)
    2481	-1.6	12.1	0.0	8.5	-8.0	11.1
CCC(C)NS(=O)(=O)c1ccc(S(=O)(=O)N(CCc2ccc(OC)c(OC)c2)Cc2cccs2)cc1 (stereo not given)
    2600	1.3	-4.2	1.7	2.5	-5.1	-6.8
Cc1cccnc1NC1(C(F)(F)F)N=C(c2ccccc2)NC1=O (stereo not given)
    20365*	-0.1	-2.1	1.2	7.8	-10.0	-4.5
CSc1ncccc1C(=O)OCc1ccccc1
    3246	-1.6	17.1	1.4	4.7	-47.0	11.2
COc1ccc(-c2cn3cc(Cl)ccc3n2)cc1OC
    4678	1.0	15.4	11.1	11.6	-76.6	10.0
O=C(O)c1ccc(CSCc2c(F)cccc2Cl)o1
    11085	-0.4	-0.1	7.3	6.9	-7.6	7.4
COc1cscc1C(N)=O
    4337	0.4	6.9	-9.8	1.1	-8.0	4.8
CCOC(=O)CCc1c(C)nc2cc(C3CCCN(C(=O)OC(C)(C)C)C3)[nH]n2c1=O (stereo not given)
    4111	/	/	/	3.2	-18.3	6.6
Cc1ccc(-n2c(=O)c3c(n4cnnc24)-c2ccccc2CC32CCCCC2)cc1
    8831	-4.7	-13.1	-0.3	-3.4	-19.4	-3.0
NC(=O)C1CN(S(=O)(=O)c2ccc(Cl)cc2F)c2ccccc2O1 (stereo not given)
    3160	-9.0	/	/	/	-2.4	/
CC1(C)CC(NC(=O)C2CCN(S(=O)(=O)c3ccc(F)cc3)CC2)CC(C)(C)N1
    6131	-2.1	1.8	-4.6	4.2	-13.5	3.1
CCCC(=O)Nc1c2c(nn1-c1ccc(OC)cc1)CS(=O)C2 (stereo not given)
    3681	7.3	/	/	-0.1	9.0	1.7
Cc1ccc2cc(CN(C)S(C)(=O)=O)c(=O)[nH]c2c1
    4944	3.7	1.6	5.9	3.3	-21.9	-3.3
S=C(Nc1ccccc1)N1CCCCC1
    7077	-8.2	2.1	0.8	3.4	-0.9	-1.3
CCCC(=O)N(c1ccc(C(=O)O)cc1)c1nc(-c2ccccc2)c(C)s1
    3245	12.2	8.3	14.8	18.9	-14.3	0.6
Cn1ccnc1SCC(=O)NC1(C#N)CCCCC1
    5766	-9.1	8.4	13.8	-1.3	-8.6	3.3
CCCCCc1c(C)nc(N2CCN(Cc3ccc4c(c3)OCO4)CC2)[nH]c1=O
    3914	6.5	-10.8	11.8	0.3	-10.1	7.5
CCc1nn(CC(=O)NC2CCN(Cc3ccccc3)CC2)c(=O)c2cc3cc(F)ccc3n12
    4664	17.8	7.4	2.0	-1.9	-19.3	-1.5
CC(c1ccon1)N(C)C(=O)c1ccc(OC2CCN(C(=O)C3CC3)CC2)cc1 (stereo not given)
    1943	2.4	-2.6	2.2	2.2	-3.0	0.4
O=C(O)COc1ccccc1/C=N/NC(=O)c1cc(-c2ccccc2)nc2ccccc12
    5280	11.5	/	/	/	-30.3	/
Oc1ccc(C=NNc2nc(-c3cccnc3)nc3ccccc23)c(O)c1
    /	/	-3.8	-0.3	-5.1	/	-8.6
CCN(CC)Cc1c(C(=O)N/N=C/c2c(Cl)cccc2Cl)nnn1-c1nonc1N
    5245	1.7	/	/	/	-16.9	/
CCc1nnc(NC(=O)CCC2CCCCC2)s1
    6385	-1.6	-4.3	7.8	2.9	-36.9	3.9
NC(=O)c1oc2ccccc2c1NC(=O)C1CC(=O)N(c2ccccc2)C1 (stereo not given)
    ?	-7.6	-0.5	-0.5	5.7	-9.1	3.0
COCCN(C(=O)COC(=O)Cc1coc2cc(C)ccc12)c1c(N)n(Cc2ccccc2)c(=O)[nH]c1=O
    ?	0.5	8.9	0.0	22.1	-7.5	16.3
Cc1ccc(NC(=O)Nc2ccccc2)nc1
    6131	2.5	-2.7	1.2	4.6	-34.4	-5.2
COC(=O)c1ccccc1NC(=O)CSc1nc2ncccc2[nH]1
    4116	7.1	5.7	6.6	1.3	-10.1	2.1

Quoted from the listing.
For PrP UTR inh, CCOC(=O)Cc1c[nH]c2ccccc12 has the entry -10.9
For BJeLR viability, CCc1nn(CC(=O)NC2CCN(Cc3ccccc3)CC2)c(=O)c2cc3cc(F)ccc3n12 has the entry 17.8
For Bead autofluor, CCOC(=O)CCc1c(C)nc2cc(C3CCCN(C(=O)OC(C)(C)C)C3)[nH]n2c1=O (stereo not given) has the entry 4111

(continued)
Every second line gives: Bead autofluor	BJeLR viability	Mtb hypoxia rep	Mtb hypoxia rep growth	RN4220 kill	PrP UTR inh	Sa ugtP lethal
CCN(C(=O)c1ccc2c(=O)n3c(nc2c1)CCCCC3)c1cc(OC)ccc1OC
    5306	-1.0	7.2	10.8	5.6	-26.4	12.8
CCOC(=O)c1c(NC(=O)C2c3ccccc3Oc3ccccc32)sc(C(C)=O)c1C
    10065	-5.8	-2.8	-1.5	-0.1	-11.7	17.2
COc1cccc2cc(-c3csc(NC(=O)CCC(=O)NCCCN4CCC(C)CC4)n3)c(=O)oc12
    4383	35.4	-0.3	-6.4	0.6	-56.3	10.1
O=C(Cc1ccccc1)c1c[nH]c(C(=O)NC2CCCC2)c1
    4753	1.1	13.8	3.3	6.1	-36.1	2.9
Cc1ccc(-n2[nH]c(C)c(C=Nc3ccc(S(=O)(=O)N4CCOCC4)cc3)c2=O)c(C)c1
    /	-0.2	2.9	-0.3	-1.3	/	0.1
Nc1nc(SCC(=O)N2CCOCC2)n[nH]1
    4640	-4.3	2.9	-0.5	3.2	-30.9	6.6
COc1ccc(C2CC(=O)N3CN(c4ccc(C)c(Cl)c4)CSC3=C2C#N)cc1OC (stereo not given)
    5467	-1.6	1.7	2.4	-6.8	-13.3	-2.7
Cc1c(Br)c([N+](=O)[O-])nn1CCCC(=O)NC(C)c1ccccc1 (stereo not given)
    5558	-1.3	3.8	-5.5	3.2	-23.1	4.0
COc1ccc(/C=C/C(=O)N2CCCc3ccccc32)cc1
    3054	-11.4	10.5	13.1	10.2	-20.0	0.7
COC(=O)CNC(=O)c1cc(-c2ccncc2)nc2c(C)c(Cl)ccc12
    4435	-2.8	14.8	9.4	-7.7	-0.5	2.8
CCOc1ccc(CCNC(=O)C(C)n2nc(C)c3c(C)n(-c4ccccc4)nc3c2=O)cc1 (stereo not given)
    6077	-8.7	6.7	4.8	-0.3	-1.3	2.8
Cc1ccc(C(=O)CSc2nc3ccccc3c(=O)n2-c2ccccc2)s1
    3656	-6.9	-4.2	4.6	-8.7	-0.6	-4.2
O=C1C(C2=C(O)c3ccccc3C2=O)=Nc2ccccc21
    ?	-21.2	11.9	16.3	7.8	-23.7	-2.1
O=C(NCCCN1CCCC1=O)C(=O)NCC1OCCCN1S(=O)(=O)c1cc(F)ccc1F (stereo not given)
    6235	-22.3	-8.3	-1.5	1.6	1.7	2.9
Cc1cc(C)cc(OCC(=O)Nc2ccncc2)c1
    3586	0.5	9.4	1.5	4.1	-8.2	3.9
O=C(O)C/C(=C\c1ccc(Cl)cc1)c1nc2ccccc2o1
    4417	1.6	2.6	5.6	18.0	-19.1	-12.7
O=C(Nc1ccccn1)c1nc(-c2ccccc2)n(-c2ccccc2)n1
    2211	-8.0	-1.0	16.1	-0.6	-31.0	7.8
N/C(=N\OCc1ccccc1)c1nonc1N
    3656	-0.1	/	/	/	-29.3	/
COc1cccc(C=NNC(=O)C(=O)NN=Cc2cccc(OC)c2OC)c1OC
    /	/	3.7	0.1	4.4	/	3.8
CC(Oc1ccc(C#N)cc1)C(=O)N1CC=C(c2ccccc2)CC1 (stereo not given)
    3227	/	9.7	4.7	3.5	-21.8	8.9
O=C(Nc1ccccc1C(=O)Nc1cccnc1)c1ccccc1
    4305	-0.4	4.5	5.4	7.1	-33.0	4.3
Cc1ccc(C)c(COC(=O)CCN=C2NS(=O)(=O)c3ccccc32)c1
    ?	-0.8	5.9	11.3	3.9	-20.4	4.0
COc1cc(CCC(=O)N2CCN(c3ncccn3)CC2)cc(OC)c1OC
    4006	-11.0	-0.2	1.5	0.9	-7.6	2.7
O=C(CN1CCOCC1)N/N=C/c1cccc2ccccc12
    3781	13.5	/	/	/	-6.1	/
CCN(CC)S(=O)(=O)c1cccc(C(=O)NCCc2ccccc2)c1
    16952*	4.6	4.7	6.4	1.1	-58.3	7.1
O=C(c1cc(C2CC2)nn1-c1ccccc1)N1CCN(c2ccccn2)CC1
    ?	/	-9.8	-0.5	4.4	14.4	5.6
Cc1ccc2nc(SCC(=O)c3ccc(Cl)cc3)nc(=O)n2c1
    /	-3.1	-7.5	-2.5	-2.9	-10.3	-7.7
CC(=O)N1N=C(c2ccc(C)cc2)CC1c1ccco1 (stereo not given)
    2549	-4.2	1.2	4.9	2.1	-20.4	-1.4
CCC(C)NC(=O)c1[nH]c(C)c(C(=O)OC)c1C (stereo not given)
    2504	-0.1	-6.7	-2.5	5.5	-7.1	-2.1
COc1ccc(C(=O)N2CCN(c3nc4cc(C)ccc4cc3C#N)CC2)c(OC)c1
    4498	5.3	/	/	0.7	-14.0	-0.3
CCOC(=O)c1ccc(-c2ccc(-c3cc(=O)oc4cc(OC)c(OC)c(OC)c34)cc2)cc1
    3109	/	-1.7	1.5	2.9	41.6	24.3
CCc1ccccc1N1C(=O)C(Cl)=C(N2CCOCC2)C1=O
    3397	-6.1	12.3	4.5	5.5	-13.8	4.9
COc1ccc(/C=C(/NC(=O)c2ccccc2)c2nc3ccc(Cl)cc3[nH]2)cc1OC
    2071	-8.0	-2.8	9.7	-14.1	-18.4	0.3
CC(Oc1ccccc1F)C(=O)NNC(=O)c1ccc(F)c(S(=O)(=O)N2CCOCC2)c1 (stereo not given)
    6174	0.2	1.0	-3.1	0.7	0.0	4.8
Cc1cccc(C)c1NC(=O)CNC(=O)C1CCCN(C(=O)c2ccc(Cl)cc2)C1 (stereo not given)
    9252	/	4.0	5.6	11.3	-36.9	3.2
Cc1cc(=O)oc2cc(OCCSc3nnc(-c4ccccc4)o3)ccc12
    2515	3.0	12.3	11.1	11.3	-11.9	6.8
CCCc1nnc(NC(=O)CCC(=O)N2CCN(S(=O)(=O)c3ccc(C)cc3)CC2)s1
    4491	15.2	9.1	2.5	2.5	-15.8	3.8

A different layout for part of the listing above.
Cc1cccc(C)c1NC(=O)CNC(=O)C1CCCN(C(=O)c2ccc(Cl)cc2)C1 (stereo not given)
  Bead autofluor = 9252 | BJeLR viability = / | Mtb hypoxia rep = 4.0 | Mtb hypoxia rep growth = 5.6 | RN4220 kill = 11.3 | PrP UTR inh = -36.9 | Sa ugtP lethal = 3.2

Cc1cc(=O)oc2cc(OCCSc3nnc(-c4ccccc4)o3)ccc12
  Bead autofluor = 2515 | BJeLR viability = 3.0 | Mtb hypoxia rep = 12.3 | Mtb hypoxia rep growth = 11.1 | RN4220 kill = 11.3 | PrP UTR inh = -11.9 | Sa ugtP lethal = 6.8
